FGF22 binding – binders of human FGF22 protein, primary screen, FGF22 synaptogenesis inhibitor project, biophysical, thermal shift, single point. Fibroblast growth factor 22 (Homo sapiens), Q9HCT0. calls only at 9.99 µM. recombinant FGF22 thermal shift, SYPRO orange fluorescence; percent of sucrose octasulfate shift, DMSO zero. actives 1.5% (n = 340,000);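 active means melting point raised past a set limit in the mean and every replicate; three in four hits are not shown here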
Target sequence (Q9HCT0 whole entry, looked up): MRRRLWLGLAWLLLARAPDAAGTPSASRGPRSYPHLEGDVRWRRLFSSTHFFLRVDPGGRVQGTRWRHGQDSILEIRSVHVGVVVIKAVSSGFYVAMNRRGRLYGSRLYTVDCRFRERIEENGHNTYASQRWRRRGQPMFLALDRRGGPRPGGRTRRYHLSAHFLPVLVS
MLL AF4-AF9 inh – inhibitors of AF4 peptide binding to AF9, primary screen, biochemical, AlphaScreen, biotin-AF4 peptide, FLAG-AF9, single point | Protein AF-9 (Homo sapiens), P42568 | inhibition, % at 10 µM | actives 0.47% (n = 350,000);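 active means every replicate reaching a set inhibition limit, whatever the replicate mean, cut at about 25% in these data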;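 further: 0% = plate neutral control median and 100% = total signal loss; the record names both 10 and 1 µM as test concentration; the first replicate is given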
Target sequence (P42568 whole entry, looked up): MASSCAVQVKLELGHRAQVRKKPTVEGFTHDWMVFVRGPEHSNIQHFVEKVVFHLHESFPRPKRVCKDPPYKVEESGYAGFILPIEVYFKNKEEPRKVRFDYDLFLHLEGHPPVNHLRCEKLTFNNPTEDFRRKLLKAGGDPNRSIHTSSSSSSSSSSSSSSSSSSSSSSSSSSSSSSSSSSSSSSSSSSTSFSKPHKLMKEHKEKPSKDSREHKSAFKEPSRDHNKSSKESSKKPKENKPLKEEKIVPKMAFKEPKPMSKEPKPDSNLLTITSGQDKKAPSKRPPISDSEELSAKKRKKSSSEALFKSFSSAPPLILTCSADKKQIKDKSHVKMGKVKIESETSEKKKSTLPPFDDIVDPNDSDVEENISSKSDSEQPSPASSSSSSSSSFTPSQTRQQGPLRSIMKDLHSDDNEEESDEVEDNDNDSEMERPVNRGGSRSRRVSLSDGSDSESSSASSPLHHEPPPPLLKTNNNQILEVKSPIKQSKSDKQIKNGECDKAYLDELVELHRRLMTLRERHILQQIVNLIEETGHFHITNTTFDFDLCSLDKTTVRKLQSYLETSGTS
rRNA inh HTS – reduced GFP signal of wild-type E. coli, primary screen, bacterial rRNA inhibitor project, GFP/RFP fluorescence, OD600, single point | actives 1.6% (n = 350,000) | E. coli WT GFP vs humanized-ribosome RFP mutants, 24 h; stronger effect = lower value; DMSO median 0, no signal -100 | GFP signal change (wild-type ribosome), % (test concentration not listed) | AID 720706, 2013;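 active means significant combined selectivity score with lowered wild-type GFP, culture density cut under 30%, mutant RFP and density less affected; inactive means any of these conditions unmet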; further: one replicate is shown; some compounds called inactive have numbers as strong as hits
rRNA inh HTS OD600 – also measured in rRNA inh HTS; calls as there; OD600 change, %; measured here: OD600 growth;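 optical density of the mix in the first replicate; 0 = DMSO median and -100 = no signal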
rRNA inh HTS RFP – recorded beside rRNA inh HTS, whose call it bears; RFP signal change, %; measured here: RFP humanized mutant strains;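 first replicate; 0 = DMSO median and -100 = no signal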
The depositor's hits bear a star; i = inactive; & = joins results of further samples. These rows are one share of the data; the hit share may differ from the screen's.

Screens by letter – A = FGF22 binding; B = MLL AF4-AF9 inh; C = rRNA inh HTS; D = rRNA inh HTS OD600; E = rRNA inh HTS RFP
SMILES: Cc1cc(C(=O)Nc2cccc3c2O[C@H](CN(C)Cc2ccc(Cl)c(Cl)c2)[C@H](C)CN([C@@H](C)CO)C3=O)n(C)n1
  A: i	B: -0.9	C: -1	D: -18	E: 3.5
SMILES: CCC(=O)N1Cc2cc(C(=O)N(C)C)nc(-c3cccc(-c4cncnc4)c3)c2[C@@H]1CCO
  A: i	B: 0.0	C: 3	D: 14	E: -5.1
SMILES: CC(C)(C)S(=O)N1Cc2ccc(CO)cc2[C@@H]1CCO (some centres undefined)
  A: i	B: -3.9	C: 11	D: 6	E: 5.7
SMILES: O=C1CN(S(=O)(=O)c2ccccc2)C[C@@H]2[C@@H](c3ccc(Br)cc3)[C@@H](CO)N12
  A: i	B: -0.6	C: 0	D: 13	E: -2.3
SMILES: COc1ccc(C#Cc2cnc3c(c2)C(=O)N([C@@H](C)CO)C[C@H](C)[C@H](CN(C)C(=O)c2ccccc2F)O3)cc1
  A: i	B: -0.4	C: 3	D: -18	E: 7.0
SMILES: C[C@H](CO)N1C[C@H](C)[C@H](CN(C)S(=O)(=O)c2cccc(C#N)c2)OCc2ccccc2-c2c(n(C)c3ccccc23)C1=O
  A: i	B: 2.6	C: -10	D: -17	E: 6.1
SMILES: C[C@@H]1CN([C@@H](C)CO)C(=O)c2cc(C3=CCCC3)cnc2O[C@H]1CN(C)S(=O)(=O)c1cn(C)cn1
  A: i	B: -1.6	C: 0	D: 7	E: -6.3
SMILES: CN(C)c1cccc(CNC(=O)c2csc([C@H]3C[C@H](O)[C@@H](CO)O3)n2)c1
  A: i	B: 1.2	C: 5	D: 10	E: 0.3
SMILES: COC(=O)C[C@@H]1C[C@@H]2c3cc(NC(=O)CC4CC4)ccc3O[C@@H]2[C@H](CO)O1
  A: i	B: -2.4	C: 3	D: 9	E: 0.3
SMILES: O=C(NCc1cccc(C(F)(F)F)c1)c1ccc2nc([C@@H]3O[C@H](CO)[C@@H](O)[C@H]3O)[nH]c2c1
  A: i	B: -0.7	C: 2	D: 15	E: 3.6
SMILES: Cc1noc(C)c1NC(=O)Nc1cccc2c1O[C@@H](CN(C)C(=O)Nc1ccccc1)[C@@H](C)CN([C@@H](C)CO)C2=O
  A: i	B: 0.8	C: -1	D: 1	E: 0.0
SMILES: C[C@@H]1CN([C@H](C)CO)S(=O)(=O)c2ccc(C#CCC3CCCC3)cc2O[C@@H]1CN(C)C
  A: i	B: 12	C: 4	D: -3	E: 6.6
SMILES: CN1c2ccc(C#Cc3cccnc3)cc2[C@H]2[C@H](CCN2S(=O)(=O)c2cccc(F)c2)[C@@H]1CO
  A: i	B: -4.8	C: -5	D: -6	E: -1.6
SMILES: Cn1cnc(CCNC(=O)C[C@H]2CC[C@@H]3[C@H](COC[C@@H](O)CN3C(=O)Nc3ccc(C(F)(F)F)cc3)O2)c1
  A: i	B: 6.5	C: -8	D: -12	E: 1.7
SMILES: COCC#Cc1cnc2c(c1)C(=O)N([C@@H](C)CO)C[C@H](C)[C@@H](CN(C)S(C)(=O)=O)O2
  A: i	B: -1.7	C: -1	D: 8	E: -0.6
SMILES: N#C[C@H]1[C@@H](c2ccc(-c3cccnc3)cc2)[C@@H](CO)N1C(=O)C1CCOCC1
  A: i	B: -1.6	C: 7	D: 0	E: -2.4
SMILES: CC(C)C[C@H]1CN([C@@H](CC(C)C)CN2CCCC2CN2C(=S)NC[C@@H]2Cc2ccccc2)C(=S)N1CC1CCCCC1 (some centres undefined)
  A: i	B: 0.9	C: 30	D: 20	E: 2.1
SMILES: COc1ccc(S(=O)(=O)N2[C@@H]3CNC[C@H]2C3c2ccc(-c3ccncc3)cc2)cc1 (some centres undefined)
  A: i	B: -0.7	C: 2&-1	D: 3&5	E: -0.5&0.8
SMILES: O=c1[nH]c2c(c(=O)n1-c1ccccc1)CCO2
  A: i	B: -0.4	C: 11	D: 20	E: -3.0
SMILES: C[C@@H]1CN([C@@H](C)CO)C(=O)c2cc(C#CC3CCCCC3)cnc2O[C@H]1CN(C)S(=O)(=O)c1ccc(F)cc1
  A: i	B: -5.7	C: 3	D: -8	E: 1.6
SMILES: CN(C)CC#Cc1ccc([C@H]2[C@@H](CO)N3CCCCN(CC4CC4)C[C@@H]23)cc1
  A: i	B: 18	C: -1	D: 7	E: -0.8
SMILES: C[C@H](CO)N1C[C@H](C)[C@@H](CN(C)C(=O)c2cc(-c3ccccc3)on2)OCc2cn(nn2)CCCC1=O
  A: i	B: 0.2&-0.7	C: 8&-2	D: 18&-1	E: 2.3&-1.9
SMILES: O=C(NC(c1ccccc1)c1ccc2ccccc2n1)C1CCN(Cc2cccc(C(F)(F)F)c2)CC1 (centres undefined)
  A: i	B: -3.8	C: -25	D: -42	E: 12
SMILES: CO[C@@H]1CN(C)C(=O)c2ccc(NS(=O)(=O)CC(F)(F)F)cc2OC[C@H](C)N(Cc2nccs2)C[C@@H]1C
  A: i	B: 0.4	C: 2	D: 0	E: -1.3
SMILES: COCCN(C[C@@H]1N[C@@H](CO)[C@H]1c1ccc(-c2cccnc2)cc1)C(C)=O
  A: i	B: 0.0	C: 2	D: 3	E: -1.7
SMILES: COC(=O)c1c(NC(=O)c2ccc(S(=O)(=O)N3CC(C)OC(C)C3)cc2)sc2c1CCN(C)C2 (centres undefined)
  A: i	B: -2.4	C: 10	D: 8	E: 12
SMILES: CC(C)NC(=O)Nc1ccc2c(c1)CC(=O)N([C@H](C)CO)C[C@H](C)[C@H](CN(C)CC1CC1)O2
  A: i	B: -2.5	C: 2	D: -3	E: 0.3
SMILES: O=C(Nc1ccc(F)cc1)N[C@H]1C=C[C@H](CC(=O)N2CCCCC2)O[C@H]1CO
  A: i	B: 3.5	C: -4	D: 1	E: -2.7
SMILES: C[C@@H]1CN([C@@H](C)CO)C(=O)CCCn2nncc2CO[C@@H]1CN(C)S(=O)(=O)c1ccc(-n2cccn2)cc1
  A: i	B: -9.3&-1.2	C: 16&-1	D: 10&-7	E: 5.3&1.3
SMILES: CO[C@H]1CN(C)C(=O)c2ccc(NC(=O)C3CCCC3)cc2OC[C@@H](C)N(C(C)=O)C[C@@H]1C
  A: i	B: -0.4	C: 1	D: 3	E: -1.0
SMILES: C[C@H]1CN([C@@H](C)CO)C(=O)Cc2cc(N(C)C)ccc2O[C@@H]1CN(C)S(=O)(=O)c1ccc(Cl)cc1
  A: i	B: 3.4	C: -5	D: -2	E: 1.1
SMILES: C[C@@H]1CCCCO[C@H](CN(C)C(=O)Nc2ccc3c(c2)OCO3)[C@H](C)CN([C@@H](C)CO)C(=O)c2cc(NC(=O)CCCN(C)C)ccc2O1
  A: i	B: 7.9	C: 0	D: 5	E: 0.5
SMILES: C[C@@H]1CN([C@@H](C)CO)C(=O)c2cc(Br)cnc2O[C@H]1CN(C)Cc1cccc(C(=O)O)c1
  A: i	B: -1.8&-2.2	C: 7&8	D: 12&14	E: -2.5&-1.1
SMILES: O=C(NC[C@H]1N[C@H](CO)[C@H]1c1ccccc1)C1CC1
  A: i	B: -2.3	C: 3	D: -2	E: -2.1
SMILES: COC(=O)C[C@H]1CC[C@H]2[C@@H](COC[C@H](O)CN2CCC(F)(F)F)O1
  A: i	B: 0.7	C: -9	D: -14	E: 4.6
SMILES: O=C(NCC[C@H]1CC[C@H](NS(=O)(=O)c2ccccc2F)[C@@H](CO)O1)c1ccc(F)cc1
  A: i	B: -3.7&-5.6	C: 0&-4	D: -6&-4	E: -0.8&0.8
SMILES: O=C(NCC1CCN(C(=O)C(=O)c2cc3ccccc3o2)CC1)c1cccnc1
  A: i	B: 1.4	C: 7	D: 2	E: -2.2
SMILES: C[C@@H]1CN([C@@H](C)CO)C(=O)c2cc(-c3ccc(C#N)cc3)cnc2O[C@H]1CN(C)Cc1ccccn1
  A: i	B: -10	C: 4	D: 4	E: 3.2
SMILES: C[C@@H]1CN([C@@H](C)CO)C(=O)Cc2cc(NC(=O)Nc3ccc(C(F)(F)F)cc3)ccc2O[C@H]1CN(C)S(=O)(=O)c1cccs1
  A: i	B: -0.5	C: -1	D: 10	E: -2.5
SMILES: FC(F)(F)c1cc(Cc2nc3ccccc3n2C(CCc2ccccc2)c2nc3ccccc3[nH]2)cc(C(F)(F)F)c1 (centres undefined)
  A: i	B: -2.1	C: 11	D: -4	E: 1.6
SMILES: Cc1noc(C)c1NC(=O)N(C)C[C@H]1Oc2c(NC(=O)C3CCCCC3)cccc2C(=O)N([C@@H](C)CO)C[C@H]1C
  A: i	B: -2.2	C: -1	D: -3	E: 2.2
SMILES: C[C@@H]1CN([C@@H](C)CO)C(=O)c2cc(NS(=O)(=O)c3ccccc3)ccc2O[C@H]1CN(C)CC1CC1
  A: i	B: -3.1	C: -2	D: 2	E: -1.6
SMILES: C[C@H]1CN([C@@H](C)CO)C(=O)c2cc(NS(=O)(=O)c3cn(C)cn3)ccc2O[C@H]1CN(C)S(=O)(=O)c1ccccc1
  A: i	B: -15	C: 4	D: 4	E: -6.2
SMILES: C[C@H]1CN([C@@H](C)CO)C(=O)Cc2cc(NS(C)(=O)=O)ccc2O[C@H]1CN(C)S(C)(=O)=O
  A: i	B: -2.5	C: 1	D: 7	E: 0.4
SMILES: Cc1ccc(S(=O)(=O)N[C@H]2CC[C@@H](CC(=O)NCc3ccc(Cl)c(Cl)c3)O[C@H]2CO)cc1
  A: i	B: 2.2	C: -18	D: -46	E: 30
SMILES: C[C@H](CO)N1C[C@H](C)[C@@H](CN(C)Cc2ccc(Cl)c(Cl)c2)Oc2ccc(NC(=O)Nc3ccccc3)cc2CC1=O
  A: i	B: -15	C: -1	D: 1	E: -1.5
SMILES: COc1ccc(CN2C(=O)C(CC(=O)NCC3CCCCC3)CC(C(=O)N(C)C)=C2C)cc1 (centres undefined)
  A: i	B: 1.4	C: 13	D: 7	E: 4.3
SMILES: COCc1cn(CC[C@@H]2CC[C@H](NC(=O)Nc3ccc(C(F)(F)F)cc3)[C@H](CO)O2)nn1
  A: i	B: 1.2	C: -2	D: -4	E: 0.6
SMILES: C=Cc1cnc([N+](=O)[O-])n1C
  A: i	B: -5.9	C: -10	D: 11	E: -1.9
SMILES: O=C(NC1CCC1)[C@H]1[C@H](CO)[C@H]2Cn3c(ccc(-c4ccccc4F)c3=O)[C@@H]1N2C(=O)CC1CC1
  A: i	B: -19	C: 2	D: 10	E: -0.5

(listing goes on)
Screens by letter – A = FGF22 binding; B = MLL AF4-AF9 inh; C = rRNA inh HTS; D = rRNA inh HTS OD600; E = rRNA inh HTS RFP
SMILES: COCC(=O)Nc1ccc2c(c1)C(=O)N(C)C[C@@H](OC)[C@H](C)CN(Cc1cccnc1)[C@@H](C)CO2
  A: i	B: -0.3	C: 3	D: 6	E: -1.8
SMILES: C[C@@H]1CCCCO[C@@H](CN(C)C(=O)CCCN(C)C)[C@H](C)CN([C@H](C)CO)C(=O)c2cc(NC(=O)Cc3ccccc3)ccc2O1
  A: i	B: -2.4	C: 3	D: 3	E: 2.4
SMILES: COc1ccc(-c2ccc([C@@H]3[C@H]4CN(Cc5ccccc5)CC(=O)N4[C@H]3CO)cc2)cc1
  A: i	B: 1.5	C: 1	D: 2	E: -3.2
SMILES: OC[C@@H]1[C@H](c2ccc(C#Cc3ccccc3)cc2)[C@@H]2CN(Cc3cncnc3)CCCCN12
  A: i	B: 8.1	C: 0	D: -16	E: 8.0
SMILES: O=C(NCc1ccncc1)[C@@H]1CCCN1C(=O)[C@H]1CCCN1C(=O)c1c(F)cccc1F
  A: i	B: -1.7	C: 10	D: 4	E: 0.7
SMILES: O=C1N[C@@H](Cc2ccccc2)C(=O)N2[C@H]1CSCCS2(=O)=O
  A: i	B: 3.4	C: 9	D: 10	E: 2.6
SMILES: O=C(CC(F)(F)F)N1C[C@H]2[C@@H](c3ccccc31)[C@@H](CO)N2C(=O)C1CCCC1
  A: i	B: -2.5	C: 5	D: 12	E: 1.6
SMILES: C[C@@H]1CN([C@H](C)CO)C(=O)c2cc(/C=C/c3ccccc3)cnc2O[C@H]1CN(C)C(=O)NC1CCCCC1
  A: i	B: 4.5&2.8&4.2	C: -4&-5	D: -3&-12	E: 1.3&2.1
SMILES: COCC#Cc1cnc2c(c1)C(=O)N([C@@H](C)CO)C[C@H](C)[C@@H](CN(C)C(=O)Cc1ccccc1)O2
  A: i	B: -1.8	C: 3	D: 11	E: -0.7

In the list so far, these contain a thiophene ring, fused or not.
Screens by letter – A = FGF22 binding; B = MLL AF4-AF9 inh; C = rRNA inh HTS; D = rRNA inh HTS OD600; E = rRNA inh HTS RFP
SMILES: COC(=O)c1c(NC(=O)c2ccc(S(=O)(=O)N3CC(C)OC(C)C3)cc2)sc2c1CCN(C)C2 (centres undefined)
  A: i	B: -2.4	C: 10	D: 8	E: 12
SMILES: C[C@@H]1CN([C@@H](C)CO)C(=O)Cc2cc(NC(=O)Nc3ccc(C(F)(F)F)cc3)ccc2O[C@H]1CN(C)S(=O)(=O)c1cccs1
  A: i	B: -0.5	C: -1	D: 10	E: -2.5
